Bioassay records (PubChem)
Cruzain noTriton – inhibitors of Trypanosoma cruzi cruzain without detergent | P25779 | purified cruzain, Z-FR-AMC fluorescence, no detergent | Potency, µM, inactives show max response, negative = inhibition, usual class: inhibitors | 2.3% of 200,000 active | AID 1476; active = well fitted curve in the direction sought with a large enough effect; inconclusive = small, poorly fitted or top-dose-only effect, or another doubt; inactive = no such curve, though single readings can be large; an effect the other way counts as inactive or inconclusive;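 also: plate controls were enzyme without inhibitor for no effect and buffer without enzyme for full effect; nearly all actives have a fitted effect of over 40% in size; top concentration of the series not given in the record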
Target sequence (P25779 123-467 limits assumed): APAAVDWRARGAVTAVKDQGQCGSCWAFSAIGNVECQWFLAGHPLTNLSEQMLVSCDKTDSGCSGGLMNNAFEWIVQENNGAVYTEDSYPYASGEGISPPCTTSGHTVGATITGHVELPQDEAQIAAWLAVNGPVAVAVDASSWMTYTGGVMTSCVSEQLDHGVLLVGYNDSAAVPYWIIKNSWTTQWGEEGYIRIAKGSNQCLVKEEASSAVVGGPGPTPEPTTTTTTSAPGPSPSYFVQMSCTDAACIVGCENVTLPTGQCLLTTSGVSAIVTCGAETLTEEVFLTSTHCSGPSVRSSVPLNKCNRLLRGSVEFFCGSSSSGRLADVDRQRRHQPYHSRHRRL
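Detergent-free condition (0.00005% Triton X-100) in acetate buffer pH 5.5 with DTT. 1.5 nM enzyme and compound were pre-mixed 15 min, then 2 uM Z-FR-AMC substrate added; reaction progress from fluorescence change between first and third reads (60 s).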
NS1 inh – influenza NS1 inhibition; S. cerevisiae slowed by influenza A NS1, growth recovery by OD600; Potency, µM (doses to about 46.1 µM), without a hit: top-dose activity, positive = more growth; 0.4% of 270,000 active; also: actives are rising curves; nearly all actives have a fitted effect of over 50% in size
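S. cerevisiae expressing influenza A NS1, grown in glucose, washed, then diluted 1:100 into pH 6.0 -URA galactose medium with 23 nl compound. Growth recovery read as OD600; NS1-free strain serves as control.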
Marburg entry inh – Marburg virus entry inhibition | 1.8% of 300,000 active | Marburg virus pseudotyped entry inhibition, cell reporter; control for the full effect not named in the record; about a third of the inactives were read at about 46 µM | AID 540276 | Potency, µM (doses to about 37.8 µM), for the others: top-dose activity change, negative = inhibition, most hits filed as inhibitors; active = well fitted inhibition curve with a large enough effect; inconclusive = small, poorly fitted or top-dose-only effect, or effect the other way; inactive = flat fitted curve, though single readings scatter; tested in HEK293 cells; about a fifth of its hits are not listed in these tables; also: % is scaled to controls: 0 for no effect and ±100 for the full control effect; luciferase read-out
RE007 growth inh – less growth of the S. pombe RE007 Vpr strain. S. pombe RE007 Vpr strain, BacTiter-Glo ATP luminescence, 24 h; control for the full effect not named in the record. Potency, µM (titrated, usually from 92.2 µM), without a hit: top-dose activity change, negative = less growth. 0.21% of 360,000 active; active = well fitted falling curve with a large enough effect; inconclusive = small, poorly fitted or top-dose-only effect; inactive = no such curve, though single readings can be large or run the other way;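 also: % is scaled to controls: 0 for no effect and ±100 for the full control effect; nearly all actives have a fitted effect of over 50% in size; the assay follows cell death caused by Vpr and the record does not say whether a fall means rescue or toxicity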
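Fission yeast strain RE007, carrying one chromosomally integrated HIV-1 vpr copy, was seeded at OD 0.01 in PMG+AL medium with 23 nL pinned compound. After 24 h at 30 °C and 99% humidity, viability was read by BacTiter-Glo luminescence.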
StopGo reporter – FMDV 2A StopGo reporter, luciferase signal; human cells with a luciferase reporter of 2A StopGo recoding; control for the full effect not named in the record; Potency, µM (titrated, usually from 57.9 µM), inactives show at the highest dose signal change, negative = less light; 1.2% of 410,000 active; active = well fitted falling curve with a large enough effect; inconclusive = small, poorly fitted or top-dose-only effect; inactive = no such curve, though single readings can be large or run the other way; tested in HEK293T cells; also: % is scaled to controls: 0 for no effect and ±100 for the full control effect; nearly all actives have a fitted effect of over 45% in size; luciferase light after 4 h
SARS PLP yeast – inhibitors of SARS-CoV papain-like protease in yeast; S. cerevisiae expressing SARS-CoV PLpro, growth rescue; control for the full effect not named in the record; Potency, µM (series often up to 32.9 µM), for the others: top-dose activity, positive = growth rescue; 0.19% of 330,000 active; AID 485353; also: 0% is about no effect; nearly all actives have a fitted effect of over 55% in size; growth read by luminescence after 48 h
LASV entry inh – inhibitors of Lassa virus binding or cell entry; Lassa virus pseudotype entry inhibition, cell reporter; control for the full effect not named in the record; AID 540256; Potency, µM (doses to about 37.9 µM), for inactives: at the highest dose activity change, negative = inhibition, most hits filed as inhibitors; 1.2% of 300,000 active; active means well fitted inhibition curve with a large enough effect; inconclusive means small, poorly fitted or top-dose-only effect, or effect the other way; inactive means flat fitted curve, though single readings scatter; tested in HEK293 cells; also: % is scaled to controls: 0 for no effect and ±100 for the full control effect; nearly all actives have a fitted effect of over 50% in size; luciferase read-out
Cruzain inh Det – cruzain (T. cruzi) inhibition with detergent; P25779; Potency, µM, without a hit: max response, negative = inhibition, hits mostly inhibitors; 0.43% of 200,000 active; purified cruzain, Z-FR-AMC fluorescence, 0.01% Triton; AID 1478; active = well fitted curve in the direction sought with a large enough effect; inconclusive = small, poorly fitted or top-dose-only effect, or another doubt; inactive = no such curve, though single readings can be large; an effect the other way counts as inactive or inconclusive;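 also: plate controls were neutral wells for no effect and buffer without enzyme for full effect; nearly all actives have a fitted effect of over 40% in size; top concentration of the series not given in the record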
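Detergent-containing run (0.01% Triton X-100) in acetate buffer pH 5.5 with 5 mM DTT: enzyme at 1.5 nM final, 15 min compound preincubation at room temperature, then 2 uM Z-FR-AMC substrate. Activity taken as 60 s fluorescence increase at 360/450 nm.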
* = called active by the depositor; ? = inconclusive; . = not tested or not shown; [ ] = dose if it differs, or a comment. Unless noted, calls follow the shape of the dose curve; as a rule, active means well fitted rising curve with a large enough effect; inconclusive means small, poorly fitted or top-dose-only effect; inactive means no such curve, though single readings can be large or run the other way. Potency is read from the fitted curve at half-maximal effect.

SMILES	Cruzain noTriton	NS1 inh	Marburg entry inh	RE007 growth inh	StopGo reporter	SARS PLP yeast	LASV entry inh	Cruzain inh Det
Cc1ccccc1C(=O)c1c[nH]c(C(=O)N2CCN(c3ccccc3F)CC2)c1	.	.	?	-11%	?	-2%	?	.
CC(CN1CCOCC1)OC(=O)c1cccc(Cl)c1 (stereo not drawn)	.	-9%	.	1%	10%	-1%	.	.
COc1cccc(C(=O)NCc2ccccc2OC)c1	6%	-9%	18%	27%	.	0%	8%	2.9%
CCN(CC)c1ccc2cc(C#N)c(=O)oc2c1	.	5%	1%[46.1 µM]	1%	3%	0%	-19%	.
COc1cc(C2Nc3cc(C)c(C)cc3NC3=C2C(=O)CC(C)(C)C3)ccc1OC(C)=O (stereo not drawn)	.	21%	.	3%	8%	-1%	.	.
CC1(C)OC(C(N)=O)C(C(N)=O)O1 (stereo not drawn)	4%	-2%	29%	-1%	4%	4%	15%	9.5%
O=C(NCCC1CCCCN1S(=O)(=O)c1ccc(F)cc1)C(=O)NCc1ccncc1 (stereo not drawn)	.	.	?	-24%	-28%	-5%	-1%	.
Cc1cccn2c(=O)c(/C=N/O)c(N3CCOCC3)nc12	.	.	?	-10%	-16%	5%	1%	.
Cc1ccc(C)c(N2C(=O)N(Cc3ccccc3C)c3ccccc3S2(=O)=O)c1	?	.	.	.	?	.	-6%[46.1 µM]	-0.2%
CCCCOc1ccc(C(=O)N2CCN(c3ccc(N4CCOCC4)nn3)CC2)cc1	.	.	?	?	-13%	-1%	-13%	.
COc1ccc(Cl)cc1S(=O)(=O)NC1CC(C)(C)NC(C)(C)C1	.	8%	-29%[46.1 µM]	-10%	-6%	-1%	14%	.
C/C(=N\NC(=S)NC(C)C)c1cccc([N+](=O)[O-])c1	0%	5%	12%	-28%	2%	?	-2%	-7.9%
CCOC(=O)C1CCN(C(=O)CSc2c3c(nc4ccc(Cl)cc24)CCCC3)CC1	-20%	.	6%[46.1 µM]	.	?	.	?	-20%
CCOc1ccc(S(=O)(=O)N(C(=O)c2ccncc2)c2ccc3oc(C)c(C(=O)OC)c3c2)cc1	4%	.	10µM*	.	-24%	.	?	-6.9%
FC(F)Oc1ccc(NC(=S)NCCc2ccccn2)cc1	.	.	?	-8%	118%[activator]	6%	15%	.
CCCc1[nH]n(-c2ccc([N+](=O)[O-])cc2)c(=O)c1C(C)=NCc1ccncc1	.	-5%	?	-6%	?	-3%	-10%	.
O=C(CN1C(=O)NC2(CCc3ccccc32)C1=O)c1ccc(F)cc1 (stereo not drawn)	.	.	?	-4%	9%	1%	0%	.
CCc1nn(CC(=O)N2CCCCC2)c(=O)c2cc3sccc3n12	-2%	.	7%[46.1 µM]	.	-9%	.	.	-1.2%
O=C(Nc1c(C(=O)c2ccccc2)oc2ccccc12)c1cc(-c2ccccc2O)n[nH]1	13µM*	9%	?	-7%	-27%	8%	-7%	-3.6%
O=c1c(C(c2ccc(Br)cc2)c2c(O)nc3n(c2=O)CCCS3)c(O)nc2n1CCCS2	.	4%	0%[46.1 µM]	-14%	-5%	0%	-3%[46.1 µM]	.
Cc1ccc(OCCCNCCO)c(Br)c1	-11%	-8%	?	-16%	-3%	1%	?	0.9%
COCCNc1cc(N2CCN(C3CCCCC3)CC2)c2noc3c2c1C(=O)c1ccccc1-3	-17%	.	30%[46.1 µM]	.	-23%	.	7%[46.1 µM]	-1.3%
CCOc1ccc(C2CC(c3cccc(OC)c3)Nc3nc(N)nn32)cc1 (stereo not drawn)	1%	23%	.	-19%	-18%	5%	.	-0.6%
O=c1cc(C(F)(F)F)c2sc(N3CCCCC3)nc2[nH]1	?	?	11%	25%	-4%	25%	-1%	0.8%
Cc1ccc(N(C)C(=O)Cn2cc(S(=O)(=O)N3CCCC3)c(S(=O)(=O)N3CCCC3)c2)cc1	-2%	.	.	.	14%	.	11%[46.1 µM]	0.7%
Cc1ccc(C)c(C(=O)N2CCC(c3nc4c(nnn4Cc4ccccc4)c(=O)[nH]3)CC2)c1	?	.	-25%[46.1 µM]	.	?	.	?	-6.5%
Cc1cccc(NC(=O)CSc2nccn2-c2cccc(Cl)c2)c1C	7%	.	.	.	-4%	.	-23%[46.1 µM]	-3.5%
COc1ccc(-n2ncc(C(=O)NCc3ccco3)c2C2CCN(C(=O)OC(C)(C)C)CC2)cc1	15%	.	.	.	15%	.	?	-4.0%
Oc1c(Br)cc(/C=N/n2c(-c3ccccc3)n[nH]c2=S)c(O)c1Br	.	-45%	.	7%	-12%	3%	.	.
O=C(Cc1ccccc1)N1CCc2ccccc21	5%	-4%	8%	-13%	44%[activator]	9%	15%	7.3%
CCn1c(C(=O)Nc2ccc(C)cc2C)cc2sc(Cl)cc21	16%	.	?	.	-6%	.	.	15%
Cc1ccc([N+](=O)[O-])cc1NC(=O)CN(C)CCOc1ccccc1	.	-1%	.	-1%	0%	0%	.	.
Cc1ccc(C(=O)Nc2ccon2)cc1S(=O)(=O)N1CCOCC1	-6%	3%	1%	21%	-17%	7%	0%	2.8%
Cc1cc(NC2CCCC2)n2nc(C)c(-c3ccccc3)c2n1	.	-10%	?	-14%	-10%	-9%	9%[46.1 µM]	.
CCn1ccc2cc(S(=O)(=O)N3CCCN(C(=O)Nc4cc(Cl)ccc4C)CC3)ccc21	?	.	.	.	-11%	.	-24%[46.1 µM]	-4.0%
COC(=O)c1cn(C(=O)c2cccc(C)c2)c2ccccc12	.	-6%	-1%	-2%	-8%	-2%	14%	.
O=C(CCSc1ccc(Cl)cc1)NCc1ccccn1	.	2%	-2%	3%	35%[activator]	-3%	-1%	.
CC(C)=CC(=O)Nc1nnc(-c2ccccc2)s1	?	2%	?	-4%	.	1%	?	5.7%
NC(=O)C1=C[C@@H](c2ccc(C(F)(F)F)cc2)C[C@@H](OCc2ccc(CO)cc2)O1	.	3%	.	6%	-12%	-1%	.	.
O=C(O)CSCCCC(=O)Nc1ccc(Br)cc1	-11%	-3%	-1%	11%	-8%	-5%	.	3.7%
CCCC(=O)NC(=S)Nc1cccc(Cl)c1N1CCCCC1	-16%	-9%	?	-2%	?	-23%	0%	-4.0%
Cc1ccc(C(=O)c2cc([N+](=O)[O-])ccc2N2CCCCC2)c(C)c1	-7%	-8%	?	-7%	?	-43%	?	-6.6%
CCN(CC)CCCN1C(=O)c2oc3ccccc3c(=O)c2C1c1cc(OC)ccc1OC (stereo not drawn)	5%	-3%	?	4%	-3%	0%	17%	-1.5%
Cc1cc(C)cc(NC(=O)C2C3C=CC4(O3)C2C(=O)N(CCCN2CCCC2)C4C(=O)NC2CCCC(C)C2C)c1 (stereo not drawn)	.	1%	-30%[46.1 µM]	-2%	-16%	-5%	12%	.
CCn1cc(-c2cc(C(=O)O)c3ccccc3n2)c(C)n1	2%	18%	?	11%	0%	-6%	-7%	-6.7%
O=C(CSc1nc(-c2ccccc2)[nH]c1-c1ccccc1)Nc1ccc2c(c1)OCCO2	-10%	.	?	.	1%	.	?	-5.8%
CCOC(=O)Cc1cc(=O)[nH]c(/N=C(\N)Nc2ccc(OC)cc2)n1	.	1%	-1%	2%	-22%	2%	-4%	.
CN(C)c1ccc(C(CNS(=O)(=O)c2ccc3ccccc3c2)c2c[nH]c3ccccc23)cc1 (stereo not drawn)	?	?	6%	10%	63%[activator]	-5%	1%	0.5%
O=C(NC(=S)N1C[C@H]2C[C@H](C1)c1cccc(=O)n1C2)c1ccc(Cl)cc1Cl	.	9%	.	14%	-9%	-6%	.	.
Cc1ccc(NC(=O)CN(C)Cc2c(O)ccc3ccccc23)cc1	.	6%	5%[46.1 µM]	?	-5%	-2%	?	.
CCOC(=O)c1ccc(NC(=S)N(CCCN2CCCCCC2)Cc2ccco2)cc1	-5%	-6%	?	-6%	22%	-8%	?	-2.9%
Fc1ccccc1Cc1noc(CN2CCN(Cc3ccc4c(c3)OCO4)CC2)n1	.	-4%	-4%[46.1 µM]	3%	-16%	-2%	-26%[46.1 µM]	.
CCS(=O)(=O)c1oc(-c2ccc(F)cc2)nc1S(=O)(=O)c1ccccc1	-12%	.	?	.	18µM*	.	?	-6.5%
CCc1cccc2c(C=C(C#N)C#N)cn(CC(=O)N3CCCC3)c12	1%	-5%	-2%	-6%	13%	6%	11%	5.2%
O=C(NCCCN1CCCCCC1)c1ccc(N2CCCC2=O)cc1	-2%	-8%	10%	-6%	-12%	-6%	17%	-7.2%
COc1cccc(C(=O)N/N=C(\C)c2cccc(NC(=O)c3ccc(F)cc3)c2)c1OC	.	-21%	-18%	5%	5%	-2%	?	.
O=C(N/N=C/c1cccc(Oc2ccccc2)c1)c1ccncc1	.	.	-3%[46.1 µM]	-7%	6%	-7%	1%	.
CC(=O)c1cccc(NC(=O)C2CCCN(S(=O)(=O)c3cccc4cccnc34)C2)c1 (stereo not drawn)	-3%	-21%	.	-4%	?	3%	.	-3.5%
CCCSc1ncnc2c1oc1ccccc12	4%	-40%	?	-1%	64%[activator]	-10%	?	-0.1%
O=C(c1ccc2c(c1)N(Cc1ccc(F)cc1)C(=O)c1ccccc1S2(=O)=O)N1CCCCC1	18%	.	-4%[46.1 µM]	.	1%	.	-6%[46.1 µM]	-1.9%
Next part.
SMILES	Cruzain noTriton	NS1 inh	Marburg entry inh	RE007 growth inh	StopGo reporter	SARS PLP yeast	LASV entry inh	Cruzain inh Det
COc1ccc(CCN(C)C(=S)Nc2ccc(SC(F)F)cc2)cc1OC	.	-3%	-14%[46.1 µM]	-25%	4%	-5%	?	.
CC(=O)CCC(=O)OCC(=O)Nc1ccc(SC(F)F)cc1	.	3%	15%[46.1 µM]	5%	18%	-4%	6%	.
CCOC(=O)CN(Cc1ccccc1)S(=O)(=O)c1ccc(NC(C)=O)cc1	-6%	-79%	-15%	16%	-7%	14%	?	0.9%
CCN(CC)c1ccc(-n2nc3cc(C)c(NC(=O)c4ccccc4F)cc3n2)cc1	4%	.	5%[46.1 µM]	.	-19%	.	11%[46.1 µM]	-2.0%
CCOC(=O)c1c(NC=O)sc2c1CCC2	-7%	-14%	12%	19%	-10%	-13%	1%	-7.9%
